Bioassay records (PubChem)
2A Renilla: Primary qHTS Assay for Foot and Mouth Disease Virus Antivirals against NCGC Sytravon and CBC Compound Libraries: Renilla Luciferase Signal | HEK cells with a luciferase reporter of 2A StopGo recoding | Potency, µM (titrated, usually from 57.5 µM), for the others: at the top dose signal change, negative = less light | actives 0.32% (n = 120,000) | AID 1745857, 2022; active means well fitted falling curve with a large enough effect; inconclusive means small, poorly fitted or top-dose-only effect; inactive means no such curve, though single readings can be large or run the other way; note: nearly all actives have a fitted effect of over 55% in size; overnight with compound
2A firefly: Primary qHTS Assay for Foot and Mouth Disease Virus Antivirals against NCGC Sytravon and CBC Compound Libraries: Firefly Luciferase Signal; HEK cells with a luciferase reporter of 2A StopGo recoding; Potency, µM (series often up to 57.5 µM), for inactives: at the highest dose signal change, negative = less light; actives 0.23% (n = 120,000); active = well fitted falling curve with a large enough effect; inconclusive = small, poorly fitted or top-dose-only effect; inactive = no such curve, though single readings can be large or run the other way; note: nearly all actives have a fitted effect of over 60% in size; overnight with compound
The depositor's hits bear a star; [ ] = another dose, or the depositor's remark. % is set by controls: 0 for no effect and ±100 for the full control effect; potency is the fitted concentration of half-maximal effect.

For Cc1cccc(/C=N/Nc2ccc(S(=O)(=O)Nc3cccc(Cl)c3)cc2[N+](=O)[O-])c1 the results were 2A Renilla 239%[activator] and 2A firefly 24%.
Screening Cc1cccc(Nc2cc(C)nc3nc(Cc4ccc(Cl)cc4)nn23)c1 returned 2A Renilla -8% and 2A firefly 26%.
For Cc1cc(S(=O)(=O)C(CNC(=O)COc2ccccc2)c2cccs2)ccc1F (stereo not given) the results were 2A Renilla 0% and 2A firefly -9%.
Screening O=C(CSc1nc(=O)n(Cc2ccco2)c2c1CCC2)NCc1ccc(F)cc1 returned 2A Renilla 141%[activator] and 2A firefly -8%.
For Cc1cc2c(=O)cc(C(=O)N(Cc3cccs3)c3ccccn3)oc2cc1Cl the results were 2A Renilla -9% and 2A firefly -5%.
For O=S(=O)(Cc1ccc(F)cc1)C(c1ccc(F)cc1)c1ccc(F)cc1 the results were 2A Renilla 0% and 2A firefly -6%.
For Cc1cc(C)cc(OCC(=O)Nc2ccc3[nH]ncc3c2)c1 the results were 2A Renilla 24% and 2A firefly -3%.
`O=C(NCCc1nc2ccccc2n1Cc1ccccc1F)c1ccc(F)cc1` gave 2A Renilla 13% and 2A firefly -20%.
`CC(C)CN(Cc1ccc(F)cc1)Cc1cc(=O)n2c3c(sc2n1)CCCC3` gave 2A Renilla 10% and 2A firefly 35%[activator].
`COc1ccccc1C1Nc2ccccc2-n2c(-c3ccccc3)c3c(=O)n(C)c(=O)n(C)c3c21` (stereo not given) gave 2A Renilla -4% and 2A firefly 28%.
For COc1cccc(CNC(=O)c2cc3cc(C)ccc3[nH]2)c1 the results were 2A Renilla 29% and 2A firefly 37%[activator].
`COC(=O)Cc1c(C)c2ccc(OCc3nn[nH]n3)c(C)c2oc1=O` gave 2A Renilla -15% and 2A firefly -1%.
Screening CCOC(=O)c1ccc(Oc2nc(C)nc3c2oc2ccccc23)cc1 returned 2A Renilla -12% and 2A firefly 17%.
Cc1c(Oc2ccc(C#N)c(C#N)c2)cccc1Oc1ccc(C#N)c(C#N)c1 was read as 2A Renilla 2.5µM* and 2A firefly 2.2µM*.
For COc1ccc(N2CCN(C(=O)c3ccc(Nc4nc5ccccc5n5nnnc45)cc3)CC2)cc1 the results were 2A Renilla -20% and 2A firefly 18%.
Screening Cc1cc(C)c(/C=C/c2ccc3ccccc3n2)c(C)c1 returned 2A Renilla 6% and 2A firefly 174%[activator].
CCONC(=O)COc1ccc(Nc2ccccc2)cc1 was read as 2A Renilla -1% and 2A firefly 6%.
Screening Oc1ccc(N2CCN(c3nc(-c4cccnc4)nc4ccccc34)CC2)cc1 returned 2A Renilla 11% and 2A firefly 17%.
Cc1sc2ncn(CC(=O)N(C)c3cccc(C(F)(F)F)c3)c(=O)c2c1S(=O)(=O)N1CCN(c2ncccn2)CC1 was read as 2A Renilla 12% and 2A firefly -4%.
COc1ccc2c(COC(=O)c3ccccc3F)cc(=O)oc2c1 was read as 2A Renilla 25% and 2A firefly 18%.
Screening COc1cccc(CNC(=O)C(=O)NCC(c2ccco2)S(=O)(=O)c2ccccc2)c1 (stereo not given) returned 2A Renilla -12% and 2A firefly -27%.
`CN(Cc1ccco1)C(=O)c1ccc(-n2cnnn2)cc1` gave 2A Renilla -10% and 2A firefly -14%.
COc1ccc(Br)cc1C1Sc2ccccc2NC2=C1C(=O)c1ccccc12 (stereo not given) was read as 2A Renilla -4% and 2A firefly -10%.
Screening COc1cccc(CN2C(=O)C3(SCC(=O)N3c3ccc(F)cc3)c3ccccc32)c1 (stereo not given) returned 2A Renilla 28% and 2A firefly 10%.
For CC(C)n1nc(C(=O)Nc2nc(-c3cccs3)cs2)c2ccccc2c1=O the results were 2A Renilla 20% and 2A firefly 100%[activator].
For Cc1ccccc1CN1CCN(Cn2nc(C)c3ccccc3c2=O)CC1 the results were 2A Renilla 2% and 2A firefly 17%.
`O=C(NC1CCCCCC1)c1cnn(-c2ccc(F)cc2)c1-n1cccc1` gave 2A Renilla 17% and 2A firefly -24%.
Screening CCN1C(=O)c2ccccc2Sc2ccc(NC(=O)Cc3ccc(OC)c(OC)c3)cc21 returned 2A Renilla -7% and 2A firefly -3%.
Screening Cc1ccc2c(Cl)cc(Cl)c(OCC(=O)NC(=O)NCc3ccccc3)c2n1 returned 2A Renilla 17% and 2A firefly 0%.
`Cc1ccc2nc(-c3ccc(NC(=O)c4cccc(F)c4)cc3)oc2c1` gave 2A Renilla 3% and 2A firefly 68%[activator].
Screening CCC1CCCCN1C(=O)CN1C(=O)N(c2cc(Cl)ccc2C)S(=O)(=O)c2ccccc21 (stereo not given) returned 2A Renilla 33%[activator] and 2A firefly 0%.
Screening CC(C)(C)Sc1ccc2nn(CC(=O)NCc3ccccc3Cl)c(=O)n2n1 returned 2A Renilla -1% and 2A firefly 103%[activator].
Screening CCS(=O)(=O)N1CCc2cc(C(=O)Nc3cc(C)cc(C)c3)ccc21 returned 2A Renilla 8% and 2A firefly 38%[activator].
For O=C(CC1Sc2ccc(C(F)(F)F)cc2NC1=O)Nc1ccc2c(c1)OCO2 (stereo not given) the results were 2A Renilla -15% and 2A firefly -8%.
COC(=O)c1cccc(COC(=O)Cn2cnc3c2c(=O)n(C)c(=O)n3C)c1 was read as 2A Renilla 2% and 2A firefly 109%[activator].
Cc1ccc(C)c2sc(N3CCN(C(=O)c4ccco4)CC3)nc12 was read as 2A Renilla -6% and 2A firefly 10%.
`COc1ccc(-c2nc(CS(=O)(=O)CC(=O)NCCc3cc(OC)ccc3OC)c(C)o2)cc1` gave 2A Renilla 59%[activator] and 2A firefly 2%.
Cn1nnnc1-c1cccc(NS(=O)(=O)c2ccc(F)c(F)c2)c1 was read as 2A Renilla 208%[activator] and 2A firefly 11%.
For CCC(C)NC(=O)COC(=O)c1nn(-c2ccccc2)c(=O)c2ccccc12 (stereo not given) the results were 2A Renilla 0% and 2A firefly -4%.
CC(C)c1ccc(Nc2c3c(nc4ccccc24)CCCC3)cc1 was read as 2A Renilla inconclusive and 2A firefly inconclusive.
O=C1Nc2cc(Cl)c(Cl)cc2N(O)N1c1c(F)cccc1F was read as 2A Renilla 2% and 2A firefly 16%.
For CCCCN(C)C(=O)c1cc(=O)[nH]c2ccccc12 the results were 2A Renilla 5% and 2A firefly 14%.
NNc1ccncc1 was read as 2A Renilla 13%[1.06 µM] and 2A firefly -3%.
`CCNc1c(NC(=O)Nc2ccccc2OCC)c(=O)oc2ccccc12` gave 2A Renilla 8% and 2A firefly 4%.
Screening CCOC(=O)C(NC(=O)c1ccccc1)C(F)(F)F (stereo not given) returned 2A Renilla 5% and 2A firefly 10%.
Screening CCCCN(CC)C(=O)CSc1nc2n[nH]c(C)c2c(=N)n1-c1cccc(OC)c1 returned 2A Renilla 60%[activator] and 2A firefly 14%.
For Cc1ccc(N(C(=O)c2ccc(F)cc2)C2C=CS(=O)(=O)C2)cc1Cl (stereo not given) the results were 2A Renilla -20% and 2A firefly -17%.
`COc1ccc(C(=O)Nc2ccccc2N2CCCCC2)cc1S(=O)(=O)NC(C)C` gave 2A Renilla 169%[activator] and 2A firefly 0%.
Screening COc1ccc(-c2cc(C(=O)O)c3ccccc3n2)cc1 returned 2A Renilla 13% and 2A firefly 181%[activator].
For CCOC(=O)c1c(C)oc2ncnc(Nc3cc(Cl)ccc3OC)c12 the results were 2A Renilla 5% and 2A firefly 17%.
Cc1ccccc1CS(=O)(=O)N1CCC(C(=O)Nc2c(C)n(C)n(-c3ccccc3)c2=O)CC1 was read as 2A Renilla -1% and 2A firefly 4%.
`CCc1ccccc1NC(=O)C(=O)NCCc1csc(-c2cccc(F)c2)n1` gave 2A Renilla 7% and 2A firefly 0%.
Cc1ccc2c(CN3CCN(CCc4ccncc4)CC3)cc(=O)oc2c1C was read as 2A Renilla -12% and 2A firefly -13%.
Screening Clc1ccc(Nc2nc(-c3ccccc3)c3cc(Cl)ccc3n2)cc1 returned 2A Renilla -3% and 2A firefly 3%.
CCOCCn1c(N2CCN(Cc3ccc(Cl)cc3)CC2)nc2c1c(=O)[nH]c(=O)n2C was read as 2A Renilla -6% and 2A firefly 0%.
Cc1nnc(NC(=O)CSc2nc3c([nH]c4ccccc43)c(=O)n2-c2cccc(Cl)c2)s1 was read as 2A Renilla -9% and 2A firefly -5%.
CC(C)CNC(=O)NC(=O)COC(=O)c1cc(-c2ccco2)nc2ccccc12 was read as 2A Renilla 1% and 2A firefly 9%.
Screening CCN(CC)S(=O)(=O)c1ccc2c(c1)N(CC(=O)NCc1ccccc1)C(=O)CS2 returned 2A Renilla 9% and 2A firefly -17%.
Screening COc1ccc(CNC(=O)NC(c2ccccc2)c2ccncc2)cc1 (stereo not given) returned 2A Renilla -7% and 2A firefly -11%.
COc1cccc(NC(=O)CCc2ncc(-c3ccccc3)o2)c1 was read as 2A Renilla -5% and 2A firefly 23%.

Sorted by count of non-hydrogen atoms (smallest number first): part of the list above.
Screening CCOC(=O)C(NC(=O)c1ccccc1)C(F)(F)F (stereo not given) returned 2A Renilla 5% and 2A firefly 10%.
Screening COc1ccc(-c2cc(C(=O)O)c3ccccc3n2)cc1 returned 2A Renilla 13% and 2A firefly 181%[activator].
O=C1Nc2cc(Cl)c(Cl)cc2N(O)N1c1c(F)cccc1F was read as 2A Renilla 2% and 2A firefly 16%.
For Cc1ccc(N(C(=O)c2ccc(F)cc2)C2C=CS(=O)(=O)C2)cc1Cl (stereo not given) the results were 2A Renilla -20% and 2A firefly -17%.
Screening COc1ccc(CNC(=O)NC(c2ccccc2)c2ccncc2)cc1 (stereo not given) returned 2A Renilla -7% and 2A firefly -11%.
`CCNc1c(NC(=O)Nc2ccccc2OCC)c(=O)oc2ccccc12` gave 2A Renilla 8% and 2A firefly 4%.
Cc1ccc2c(CN3CCN(CCc4ccncc4)CC3)cc(=O)oc2c1C was read as 2A Renilla -12% and 2A firefly -13%.
CC(C)CNC(=O)NC(=O)COC(=O)c1cc(-c2ccco2)nc2ccccc12 was read as 2A Renilla 1% and 2A firefly 9%.
`COc1ccc(C(=O)Nc2ccccc2N2CCCCC2)cc1S(=O)(=O)NC(C)C` gave 2A Renilla 169%[activator] and 2A firefly 0%.
CCOCCn1c(N2CCN(Cc3ccc(Cl)cc3)CC2)nc2c1c(=O)[nH]c(=O)n2C was read as 2A Renilla -6% and 2A firefly 0%.
Cc1nnc(NC(=O)CSc2nc3c([nH]c4ccccc43)c(=O)n2-c2cccc(Cl)c2)s1 was read as 2A Renilla -9% and 2A firefly -5%.
Cc1ccccc1CS(=O)(=O)N1CCC(C(=O)Nc2c(C)n(C)n(-c3ccccc3)c2=O)CC1 was read as 2A Renilla -1% and 2A firefly 4%.

(more compounds)
Screening Cc1c(C(=O)NCCc2ccc(Cl)cc2)cccc1-n1cnc2cccnc21 returned 2A Renilla -20% and 2A firefly inconclusive.
`CC(C)CCNC(=O)NC(=O)CSc1nnc(-c2ccccc2)c(-c2ccccc2)n1` gave 2A Renilla 23% and 2A firefly 1%.
Screening Cc1ccccc1OCCSCc1ccc(C(N)=O)cc1 returned 2A Renilla 1% and 2A firefly 0%.
Cn1c(SCC(=O)N2CCc3ccccc32)nnc1-c1ccc(F)cc1 was read as 2A Renilla -1% and 2A firefly 5%.
`Cc1ccccc1-c1nc(CS(=O)(=O)CC(=O)Nc2cc(Cl)cc(Cl)c2)c(C)o1` gave 2A Renilla -5% and 2A firefly -7%.
Screening CC(Oc1ccc(C#N)cc1Cl)C(=O)Nc1ccnn1C(C)C (stereo not given) returned 2A Renilla 15% and 2A firefly 49%[activator].
`CCN(CCCNC(=O)c1cc(Nc2ccc(OC)cc2OC)nc2ccccc12)c1cccc(C)c1` gave 2A Renilla -19% and 2A firefly 11%.
For O=C(Nc1cc2ccc(O)cc2oc1=O)c1ccc(F)cc1 the results were 2A Renilla 7% and 2A firefly 147%[activator].
Screening CCN(CC)S(=O)(=O)c1ccc(Cl)c(C(=O)Nc2c(C)cc(C)cc2Cl)c1 returned 2A Renilla -13% and 2A firefly inconclusive.
`COc1ccc2c(C)c(CCC(=O)NCCc3ccc(Cl)cc3)c(=O)oc2c1` gave 2A Renilla 12% and 2A firefly 1%.
For CSc1nc2c(c(=O)n(C)c(=O)n2C)n1Cc1cccc(C)c1 the results were 2A Renilla 0% and 2A firefly 11%.
For O=C(Nc1ccc2oc(=O)ccc2c1)c1ccccc1 the results were 2A Renilla 1% and 2A firefly 89%[activator].
For CCOc1ccccc1NC(=O)c1ccc2c(Cl)c3c(nc2c1)CCC3 the results were 2A Renilla 14% and 2A firefly 178%[activator].
`COC(=O)c1c(NC(=O)CS(=O)(=O)c2ccc(C)cc2)sc2c1CCCC2` gave 2A Renilla -12% and 2A firefly -11%.
Screening OC(CCN1CCCC1)(c1ccccc1)C1CCCCC1 (stereo not given) returned 2A Renilla -17% and 2A firefly -20%.
For Cc1ccc(NC(=O)CSc2nc3ccccc3o2)cc1 the results were 2A Renilla -9% and 2A firefly 89%[activator].
For C#CCN1CC(N(C)CCOC(=O)c2cc3ccccc3[nH]2)CS1(=O)=O (stereo not given) the results were 2A Renilla inconclusive and 2A firefly inconclusive.
`COc1ccc(NC(=O)c2ccc3[nH]c(C)cc(=O)c3c2)cc1` gave 2A Renilla -7% and 2A firefly 1%.
Screening CCOc1ccc(NC(=O)COc2ncnc3c(Cl)cc(Cl)cc23)c([N+](=O)[O-])c1 returned 2A Renilla -14% and 2A firefly 0%.
Screening O=C(C1CCCN(Cc2ccccc2C(F)(F)F)C1)N1CCCCC1 (stereo not given) returned 2A Renilla 12% and 2A firefly -16%.
Screening CCOc1ccc(-c2cc(C(=O)O)c3ccccc3n2)c(OCC)c1 returned 2A Renilla inconclusive and 2A firefly 11%.

Some of the compounds tested; rates above refer to the full screens.
